Marburg entry inh: qHTS for inhibitors of binding or entry into cells for Marburg Virus | actives 1.8% (n = 300,000) | Marburg virus pseudotyped entry inhibition, cell reporter; control for the full effect not named in the record; about a third of the inactives were read at about 46 µM | AID 540276, 2011 | Potency, µM (doses to about 37.8 µM), for the others: at the top dose activity change, negative = inhibition, most hits filed as inhibitors; active = well fitted inhibition curve with a large enough effect; inconclusive = small, poorly fitted or top-dose-only effect, or effect the other way; inactive = flat fitted curve, though single readings scatter; tested in HEK293 cells; about a fifth of its hits are not listed in these tables; also: % is scaled to controls: 0 for no effect and ±100 for the full control effect; luciferase read-out
StopGo reporter: High Throughput Screening for Foot and Mouth Disease Virus Antivirals; AID 1159524, 2015; Potency, µM (top dose mostly 57.9 µM), inactives show at the highest dose signal change, negative = less light; actives 1.2% (n = 410,000); human cells with a luciferase reporter of 2A StopGo recoding; control for the full effect not named in the record; active = well fitted falling curve with a large enough effect; inconclusive = small, poorly fitted or top-dose-only effect; inactive = no such curve, though single readings can be large or run the other way; tested in HEK293T cells; also: % is scaled to controls: 0 for no effect and ±100 for the full control effect; nearly all actives have a fitted effect of over 45% in size; luciferase light after 4 h
Cruzain inh Det: qHTS Assay for Promiscuous and Specific Inhibitors of Cruzain (with detergent). Cruzipain (Trypanosoma cruzi), P25779. actives 0.43% (n = 200,000). AID 1478, 2009. purified cruzain, Z-FR-AMC fluorescence, 0.01% Triton. Potency, µM, for the others: max response, negative = inhibition, hits mostly inhibitors; active = well fitted curve in the direction sought with a large enough effect; inconclusive = small, poorly fitted or top-dose-only effect, or another doubt; inactive = no such curve, though single readings can be large; an effect the other way counts as inactive or inconclusive;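 also: plate controls were neutral wells for no effect and buffer without enzyme for full effect; nearly all actives have a fitted effect of over 40% in size; top concentration of the series not given in the record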
Target sequence (P25779 123-467 limits assumed): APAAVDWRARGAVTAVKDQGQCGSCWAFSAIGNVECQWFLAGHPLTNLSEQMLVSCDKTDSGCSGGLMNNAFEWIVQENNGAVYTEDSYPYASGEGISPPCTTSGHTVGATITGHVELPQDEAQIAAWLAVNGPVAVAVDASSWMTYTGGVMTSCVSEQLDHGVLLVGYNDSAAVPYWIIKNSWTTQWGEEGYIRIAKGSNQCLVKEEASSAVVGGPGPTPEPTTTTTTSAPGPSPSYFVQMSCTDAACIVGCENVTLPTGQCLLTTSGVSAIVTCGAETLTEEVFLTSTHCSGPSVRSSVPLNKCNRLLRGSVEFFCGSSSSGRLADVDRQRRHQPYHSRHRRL
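Compounds were screened in titration against cruzain (1.5 nM) with 0.01% Triton X-100 to counter colloidal aggregation. Activity was the AMC fluorescence increase over 60 s after adding 2 uM Z-FR-AMC at pH 5.5.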
RE007 growth inh: qHTS Assay for Inhibitors of the HIV-1 protein Vpr | actives 0.21% (n = 360,000) | AID 651644, 2012 | S. pombe RE007 Vpr strain, BacTiter-Glo ATP luminescence, 24 h; control for the full effect not named in the record | Potency, µM (highest dose often 92.2 µM), inactives show at the highest dose activity change, negative = less growth; active = well fitted falling curve with a large enough effect; inconclusive = small, poorly fitted or top-dose-only effect; inactive = no such curve, though single readings can be large or run the other way;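 also: % is scaled to controls: 0 for no effect and ±100 for the full control effect; nearly all actives have a fitted effect of over 50% in size; the assay follows cell death caused by Vpr and the record does not say whether a fall means rescue or toxicity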
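Fission yeast strain RE007, carrying one chromosomally integrated HIV-1 vpr copy, was seeded at OD 0.01 in PMG+AL medium with 23 nL pinned compound. After 24 h at 30 °C and 99% humidity, viability was read by BacTiter-Glo luminescence.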
Cruzain noTriton: qHTS Assay for Promiscuous and Specific Inhibitors of Cruzain (without detergent). purified cruzain, Z-FR-AMC fluorescence, no detergent. Potency, µM, inactives show max response, negative = inhibition, most hits filed as inhibitors. actives 2.3% (n = 200,000). AID 1476, 2009; active = well fitted curve in the direction sought with a large enough effect; inconclusive = small, poorly fitted or top-dose-only effect, or another doubt; inactive = no such curve, though single readings can be large; an effect the other way counts as inactive or inconclusive;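 also: plate controls were enzyme without inhibitor for no effect and buffer without enzyme for full effect; nearly all actives have a fitted effect of over 40% in size; top concentration of the series not given in the record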
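Detergent-free condition (0.00005% Triton X-100) in acetate buffer pH 5.5 with DTT. 1.5 nM enzyme and compound were pre-mixed 15 min, then 2 uM Z-FR-AMC substrate added; reaction progress from fluorescence change between first and third reads (60 s).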
SARS PLpro yeast: qHTS of Yeast-based Assay for SARS-CoV PLP; S. cerevisiae expressing SARS-CoV PLpro, growth rescue; control for the full effect not named in the record; actives 0.19% (n = 330,000); AID 485353, 2010; Potency, µM (top dose mostly 32.9 µM), for inactives: top-dose activity, positive = growth rescue; also: 0% is about no effect; nearly all actives have a fitted effect of over 55% in size; growth read by luminescence after 48 h
Lassa entry inh: qHTS for Inhibitors of binding or entry into cells for Lassa Virus. Potency, µM (titrated, usually from 37.9 µM), without a hit: top-dose activity change, negative = inhibition, usual class: inhibitors. Lassa virus pseudotype entry inhibition, cell reporter; control for the full effect not named in the record. AID 540256, 2011. actives 1.2% (n = 300,000); active means well fitted inhibition curve with a large enough effect; inconclusive means small, poorly fitted or top-dose-only effect, or effect the other way; inactive means flat fitted curve, though single readings scatter; tested in HEK293 cells; also: % is scaled to controls: 0 for no effect and ±100 for the full control effect; nearly all actives have a fitted effect of over 50% in size; luciferase read-out
NS1 inh: qHTS Assay for Inhibitors of Influenza NS1 Protein Function. S. cerevisiae slowed by influenza A NS1, growth recovery by OD600. Potency, µM (series often up to 46.1 µM), for inactives: at the top dose activity, positive = more growth. actives 0.4% (n = 270,000). AID 2326, 2010; also: actives are rising curves; nearly all actives have a fitted effect of over 50% in size
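Recovery from NS1-induced slow growth read by OD600 in budding yeast switched to galactose assay medium (pH 6.0, -URA) at 1:100 dilution. Compound 23 nl per well; the matching strain lacking NS1 serves as control.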
Numbers without * were called inactive; ? = inconclusive; · = no result given; & = joins results of further samples; [ ] = another dose, or the depositor's remark. Unless noted, calls follow the shape of the dose curve; as a rule, active means well fitted rising curve with a large enough effect; inconclusive means small, poorly fitted or top-dose-only effect; inactive means no such curve, though single readings can be large or run the other way. Potency is read from the fitted curve at half-maximal effect.

SMILES	Marburg entry inh	StopGo reporter	Cruzain inh Det	RE007 growth inh	Cruzain noTriton	SARS PLpro yeast	Lassa entry inh	NS1 inh
COc1cc(/C=N/N=C/c2c[nH]c(=O)c(C#N)c2Nc2ccccc2)ccc1O	·	-16%	·	-4%	·	0%	·	-59%
CCN(CC)c1ccc2c(cc1=O)[C@@H](NC)CCc1cc(OC)c(OC)c(OC)c1-2	4µM*	-1%	·	10%	·	0%	1.1µM*	4%
CCOC(=O)[C@@H]1[C@H]2COc3ccc(Br)cc3[C@@H]2N2C(=O)N(c3ccc(C(F)(F)F)cc3)C(=O)[C@@]12C	·	-18%	·	8%	·	-6%	·	29%
Cc1[nH][nH]c(=O)c1C(c1ccc(-c2ccc(Cl)c(Cl)c2)o1)c1c(C)[nH][nH]c1=O	-1%	-19%	-11%	14%	11%	-5%	·	12%
O=C(NN1CCOCC1)c1ccc([N+](=O)[O-])cc1	·	0%	·	-5%	·	-2%	·	5%
Cc1ccccc1-n1c(SCC(=O)c2c(N)n(C)c(=O)n(C)c2=O)nnc1-c1cccnc1	2%	-12%	0.6%	-9%	11%	16%	0%	3%
CCOc1ccc(CN(CCc2ccc3c(c2)OCO3)Cc2cc(OC)cc(OC)c2)cc1	-37%[46.1 µM]	?	-5.2%	·	1%	·	-1%[46.1 µM]	·
CC1CCN(Cc2c(O)ccc3c(=O)c(-c4ccc(Cl)cc4)c(C(F)(F)F)oc23)CC1	8%[46.1 µM]	-3%	-0.9%	·	2%	·	?	·
Cc1cc(C)c(C(=O)COC(=O)c2ccc(NC(=O)CC#N)cc2)cc1C	-5%[46.1 µM]	19%	·	5%	·	0%	-8%	12%
Cc1nnc(NC(=O)CC(NC(=O)C(F)(F)F)c2ccccc2)s1 (stereo not given)	0%[46.1 µM]	44%[activator]	0.0%	2%	7%	21%	-28%	14%
Cc1ccccc1Nc1nc(N)c(C(=O)c2ccccc2Cl)s1	·	-13%	-8.8%	·	?	·	11%[46.1 µM]	·
O=c1nc(SCc2ccc(Cl)cc2)nc(-c2ccccc2)[nH]1	-17%	8%	·	-20%	·	-1%	-9%	-2%
CC(C)C[C@H](NC(=O)[C@@H]1Cc2c([nH]c3ccccc23)C2c3ccccc3C(=O)N21)C(=O)N1CCC[C@@H]1C(=O)O (stereo not given in full)	·	-5%	·	9%	·	-10%	·	18%
CCCCOC(=O)Nc1sc2c(c1C(=O)OC)CCC2	-29%	·	-5.3%	-8%	-18%	-4%	0%	2%
COCCN(C(=O)CCC(=O)Nc1ccccn1)C(C(=O)NCCC(C)C)c1ccc(F)cc1 (stereo not given)	7%[46.1 µM]	-4%	·	-26%	·	1%	-12%[46.1 µM]	-12%
O=C(CSc1ccccc1)NCc1ccc2c(c1)CCN2C(=O)c1ccc(Cl)cc1	·	0%	3.0%	·	-3%	·	?	·
CC(/C=N/NC(=O)c1ccccc1F)=C\c1ccccc1	·	26%	·	-11%	·	-11%	·	-15%
O=S(=O)(NC1CCCC1)OCC(Cl)(Cl)Cl	·	24%	·	-6%	·	2%	·	-20%
CC(=O)Nc1ccccc1-c1nc2cc(C#N)c(C#N)cc2[nH]c1=O	·	25%	·	14%	·	-1%	·	5%
Cc1nn(C)c(N)c1-c1ccccc1	-3%[46.1 µM]	6%	·	-8%	·	-4%	2%[46.1 µM]	·
CCOC(=O)N1C(=O)NC(=O)C1c1ccc(OC)cc1 (stereo not given)	-4%	-3%	·	1%	·	·	-20%[46.1 µM]	·
CCNC(=S)N(CCc1c(C)[nH]c2ccc(C)cc12)Cc1cc(OC)c(OC)c(OC)c1	?	-18%	-7.2%	2%	?	-1%	?	-9%
CCCCS(=O)(=O)N1CCCC(C(=O)Nc2ccc3c(c2)CCC3)C1 (stereo not given)	?	33%[activator]	·	-13%	·	4%	-9%	-10%
CN(CC(=O)Nc1ccc(Cl)cc1)C(=O)c1cccc(S(=O)(=O)N(C)C)c1	13%	-8%	-1.8%	4%	-7%	10%	?	-14%
Cc1ccc(S(=O)(=O)Nc2ccc(-c3nc4cc(NS(=O)(=O)c5ccc(C)cc5)ccc4o3)cc2)cc1	·	·	2.4%	·	7.9µM*	-11%	·	10%
OCCC1CN(Cc2nc3ccccc3s2)CCN1C1CCCC1 (stereo not given)	·	-4%	·	-6%	·	0%	·	2%
COc1cccc(CN(C)CC(=O)Nc2ccccc2C(=O)Nc2ccccc2)c1OC	?	?	·	2%	·	0%	?	·
CCN(CC)S(=O)(=O)c1ccc2c(c1)[nH]c(=S)n2CC	?	-24%	·	3%	·	-2%	7%	·
COc1ccc(C(=O)N2CCN(c3ncccn3)CC2)cc1	·	-9%	·	6%	·	15%	·	3%
O=C(COC(=O)C1=COCCO1)Nc1ccc2c(c1)OCO2	-2%	41%[activator]	0.7%	4%	-2%	2%	6%	8%
Cc1ccsc1CCNC(=O)C1CCC(=O)N(CCc2cccc(F)c2)C1 (stereo not given)	·	75%[activator]	·	-9%	·	-1%	·	-15%
CCOCCCn1c(-c2ccc(Cl)cc2)n[nH]c1=S	5%	9%	0.5%	-15%	-3%	14%	-4%	9%
COc1cc(N=Nc2ccc(C(=O)N(C)C)cc2)c(C)cc1N	?	46%[activator]	·	-23%	·	·	5%[46.1 µM]	·
CCN1CCN(C(=O)c2ccc(CS(=O)(=O)Cc3ccccc3C)o2)CC1	·	-22%	·	-1%	·	?	·	-11%
O=C(N/N=C/c1cc(Br)c(O)c(Br)c1)C1CC1	-36%[46.1 µM]	-2%	·	11%	·	-2%	5%	1%
O=C(NC(=S)N1CCCc2ccccc21)c1ccc(Cl)cc1	0%	10%	-12%	-14%	?	9%	-11%	?
COC(=O)C1=C(C)NC(=S)NC1c1ccc(-c2ccccc2C(=O)OC)o1 (stereo not given)	-22%[46.1 µM]	-26%	·	-8%	·	1%	-22%	·
CSc1nc2c([nH]c3ccccc32)c(=O)n1-c1ccc(F)cc1	·	-8%	0.6%	·	-4%	·	?	·
Cc1c(Cl)cccc1NC(=O)NCc1ccccn1	·	29%	·	11%	·	-8%	·	-4%
O=C(NCc1ccncc1)C(=O)Nc1ccc2c(c1)OCO2	24%	37%[activator]	·	1%	·	1%	14%	?
COc1cccc(NC(=O)Cn2c(=O)ccc3cc(S(=O)(=O)N4CCC(C)CC4)ccc32)c1	·	-29%	-4.0%	·	1%	·	?	·
CC(C)c1ccc2nc(SCC(=O)NCC3CCCO3)c(C#N)cc2c1 (stereo not given)	-16%	16%	·	-26%	·	-19%	-3%	4%
CCCCOc1ccc(NC(=O)[C@@H]2CCCN2C(=O)C2CCN(S(=O)(=O)c3ccc(C)cc3)CC2)cc1	?	-22%	-4.5%	-1%	?	-8%	?	?
O=[N+]([O-])c1ccccc1S(=O)(=O)Oc1ccccc1/C=N/n1cnnc1	-5%	-5%	0.5%	4%	3%	10%	-4%	20µM*
Cc1oc2ncn(C)c(=O)c2c1C(=O)N(C)c1ccccc1F	·	4%	2.2%	·	-4%	·	?	·
O=C(O)C1CC=CCC1C(=O)N1CCc2ccccc21 (stereo not given)	0%	7%	-3.1%	-5%	11%	23%	0%	5%
Cc1ccc(CN2CCN(Cc3cnc(N(C)C)s3)CC2CCO)o1 (stereo not given)	·	-5%	·	-10%	·	0%	·	-1%
COC(=O)N[C@H](c1ccccc1)[C@@]1(C)C[C@@H]1[C@@H](C)C(=O)Nc1ccc2ccccc2c1	·	-8%	-1.5%	-6%	-1%	·	·	·
CCCOc1ccccc1C1NC(=O)NC(C)=C1C(=O)OCCOC (stereo not given)	26%	6%	3.2%	-11%	3%	2%	-1%	-2%
Cc1ccc(Cl)c2c1NC(=O)C2(O)CC(=O)c1ccc(F)cc1 (stereo not given)	11%	-12%	-0.4%	0%	0%	2%	-1%	3%
Cc1ccc(NC(=O)c2sc(-n3nc(C)c(Cc4ccc5c(c4)OCO5)c3C)nc2C)cc1Cl	4%[46.1 µM]	-29%	1.1%	·	-8%	·	10%[46.1 µM]	·
CSc1ccc(CN(C)CC(=O)Nc2ccc(C)cc2Br)cc1	?	?	-7.6%	-3%	-8%	-12%	-18%	-22%
O=C(O)c1cccc(N2C(=O)c3cccc4cccc(c34)C2=O)c1	4%	5%	·	24%	·	3%	0%	12%
O=C(NCCCc1ccccc1)c1nn(-c2ccccc2)nc1CO	1%[46.1 µM]	?	-4.7%	·	-6%	·	0%[46.1 µM]	·
CCOC(=O)N1CCC(NC(=O)c2ccc3snnc3c2)CC1	·	-7%	1.0%	-7%	-4%	3%	·	7%
Cc1cccc(-c2noc(CN(C)C(=O)c3ccc4c(c3)OCO4)n2)c1	?	-21%	·	27%	·	6%	21%	-1%
COc1ccc(CNC(=O)CS(=O)CC(=O)O)cc1OC (stereo not given)	6%[46.1 µM]	-9%	·	-21%	·	2%	5%[46.1 µM]	·
O=C(CN1C(=O)C(=O)N(C2CCCC2)C1=O)Nc1ccc(F)cc1F	?	72%[activator]	·	47%	·	-2%	-1%	·
COc1ccccc1NCc1nnc2n1CCCCC2	·	-22%	1.0%	·	-6%	·	22%[46.1 µM]	·
CC(=O)c1cccc(-n2c(CCC(=O)O)ccc2-c2ccccc2)c1	?	-2%&4%	-12%	-16%	3%	-1%	0%[46.1 µM]	3%
Carrying on.
SMILES	Marburg entry inh	StopGo reporter	Cruzain inh Det	RE007 growth inh	Cruzain noTriton	SARS PLpro yeast	Lassa entry inh	NS1 inh
O=C(NC(=S)Nc1ccccc1N1CCCCC1)c1ccc(F)cc1Cl	?	?	·	1%	·	3%	-8%	3%
O=C1C=C(c2cccc(OCc3ccccc3)c2)C[C@@H](c2ccc3c(c2)OCO3)C1	-1%	0%	·	15%	·	2%	·	·
COc1cnc(SCCC(F)=C(F)F)[nH]c1=O	1%[46.1 µM]	6%	·	0%	·	1%	1%	·
COc1cc(OC)c(N(C)S(=O)(=O)c2cccc(C(=O)NC3=NCCS3)c2)cc1Cl	?	-3%	·	7%	·	-4%	-24%	8%
CCc1cccc(OCC(=O)Nc2ccc(C)c(S(=O)(=O)N3CCCCCC3)c2)c1	?	?	·	22%	·	-4%	?	·

Rows were taken by chance (roughly 4.7% active in at least one column).
